# Source: PubChem BioAssay (several laboratories)
# CBX7 inh: CBX7 inhibition, primary AlphaScreen. O95931. AlphaScreen His6-CBX7 / biotin-H3K27me3 peptide binding; stronger effect = lower value. normalised signal (fraction of DMSO) (test concentration not listed). 66,000 tested, 1.1% active; in the data active means normalised signal below about 0.5;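 further: 100 nL library stock added to about 20 µL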
# Target sequence (O95931 whole entry, looked up): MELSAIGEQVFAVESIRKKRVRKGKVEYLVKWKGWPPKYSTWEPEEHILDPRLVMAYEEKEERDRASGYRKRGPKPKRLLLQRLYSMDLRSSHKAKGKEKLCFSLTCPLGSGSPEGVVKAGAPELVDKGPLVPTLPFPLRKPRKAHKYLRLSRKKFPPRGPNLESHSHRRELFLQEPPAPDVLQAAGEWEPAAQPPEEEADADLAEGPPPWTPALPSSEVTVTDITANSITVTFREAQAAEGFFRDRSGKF
# CBX7 inh z-score: further read-out of CBX7 inh, marked with its call; z-score; measured here: z-score of CBX7 signal; some inactives read as strong as hits; reference of the scale not given here;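 same signal on another scale; lower means less binding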
# * = called active by the depositor; & = joins results of further samples. An excerpt; the hit share may differ from the screen's.
SMILES,CBX7 inh,CBX7 inh z-score
COC(=O)c1cc(NC(=O)Cn2cnc3c2c(=O)n(C)c(=O)n3C)cc(C(=O)OC)c1,0.987,-0.128
COc1ccc(C2(CC(=O)O)CCOC(C)(C)C2)cc1 (stereo not given),1.07,2.02
Cc1cc(C)cc(NC2=NC3CS(=O)(=O)CC3S2)c1 (stereo not given),0.978,-0.488
O=C(Nc1ccc(O)c(-c2nc3ccccc3[nH]2)c1)C12CC3CC(CC(C3)C1)C2,0.987,-0.155
COc1ccccc1N1CCN(c2ncc(C(=O)Nc3ccc(Br)cc3C)c3ccccc23)CC1,1.06,0.845
Cc1ccc(S(=O)(=O)Nc2cccc3cccnc23)cc1,0.0846*,-19.5*
Cc1ccccc1OCc1nc(-c2ccc(Br)cc2)no1,1.07,0.769
O=C(Nc1c(C(=O)c2ccccc2)oc2ccccc12)c1cccc(Cl)c1,1.22,0.768
CCOC(=O)c1cc(-c2ccccc2)n(CCC(=O)N2CCCCCC2)c1C,0.944,-0.603
CC(=O)Nc1ccc(Oc2nnc(C)c3ccccc23)cc1,1.02,0.658
CC(CC(=O)NC(C)CCc1ccccc1)CC1=NS(=O)(=O)c2ccccc2N1 (stereo not given),0.946,-0.573
CCCNC(=O)CCc1c(C)nc2c(-c3ccc(F)cc3)c(C)nn2c1C,0.987,-0.32
CCOc1ccc(N2C(=O)c3cccnc3C2Nc2ccc(Br)c(C)c2)cc1 (stereo not given),0.164*,-10.7*
Cc1ccc(-c2nnc(Nc3ccc(Cl)cc3)c3ccccc23)cc1S(=O)(=O)N1CCN(C)CC1,0.907,-0.105
CCC(CO)NC(=O)c1cc2c(n(-c3ccc(OC)cc3)c1=O)CC(C)(C)CC2=O (stereo not given),1.05,1.69
CCN(CC)S(=O)(=O)c1ccc2oc(C(=O)Nc3cccc(C(F)(F)F)c3)c(C)c2c1,0.983,-0.66
Cc1ccc(Nc2ncc(C(=O)NC3CCCC(C)C3)c3ccccc23)cc1Cl (stereo not given),1.23,6.55
Cc1ccccc1N1C(=O)c2ccc(-c3nc4ccccc4o3)cc2C1=O,1.05,1.16
CCN(C(=O)CCc1nc(-c2ccc(C)cc2)no1)c1ccc(F)cc1,1.18,3.49
Cc1ccc(-c2cc(C(=O)Nc3cc(C)on3)c3ccccc3n2)c(C)c1,0.97,-0.296
COc1ccc(C(=O)NCC2(c3ccccc3)CCCC2)cc1,1,0.0968
CCOC(=O)C1CCN(c2c(N3CCC(C)CC3)c(=O)c2=O)CC1,1.09,2.48
COCCCNC(=O)c1ccc2c(c1)N(Cc1ccc(Cl)cc1)C(=O)c1ccccc1S2,0.95,-0.628
c1ccc2c(NC3CCCC3)nc(N3CCNCC3)nc2c1,1.14,1.38
O=C(Nc1ccc(Cc2ccncc2)cc1)c1cc2ccccn2n1,1.06,1.41
O=C(Nc1ccc2[nH]c(=O)[nH]c2c1)C1COc2ccccc2O1 (stereo not given),1,0.0304
O=C(Nc1nc(-c2ccc(Oc3ccccc3)cc2)cs1)c1c(F)cccc1F,0.869,-2.2
Cc1ccc2oc(-c3cccc(NC(=O)c4ncn[nH]4)c3)nc2c1,0.0761*,-16*
O=C(Nc1cc(F)ccc1F)c1cnc2ccccn2c1=O,1.07,1.95
COc1ccc(NC(=O)Cc2nn(C)c(=O)c3ccccc23)cc1,0.842,-2.27

# In the list so far, these have an aryl methoxy group:
SMILES,CBX7 inh,CBX7 inh z-score
COc1ccc(C2(CC(=O)O)CCOC(C)(C)C2)cc1 (stereo not given),1.07,2.02
COc1ccccc1N1CCN(c2ncc(C(=O)Nc3ccc(Br)cc3C)c3ccccc23)CC1,1.06,0.845
CCC(CO)NC(=O)c1cc2c(n(-c3ccc(OC)cc3)c1=O)CC(C)(C)CC2=O (stereo not given),1.05,1.69
COc1ccc(C(=O)NCC2(c3ccccc3)CCCC2)cc1,1,0.0968
COc1ccc(NC(=O)Cc2nn(C)c(=O)c3ccccc23)cc1,0.842,-2.27

# Following part:
SMILES,CBX7 inh,CBX7 inh z-score
CCC(=O)N1CCc2cc(S(=O)(=O)CCC(=O)NC3CCCCCC3)ccc21,1.06,2.09
CCOc1ccccc1Nc1nc2ccccc2nc1NS(=O)(=O)c1ccc(C)cc1,1.04,1.1
COc1ccc(C(=O)Nc2c3c(nn2-c2ccc(Cl)cc2)CSC3)cc1,0.915,-1.94
COc1cc(OC)cc(-c2nnc(-c3ccc(C(F)(F)F)cc3)o2)c1,0.934,-0.834
O=c1nc(Nc2ccccc2)c(Cl)cn1-c1nc(-c2ccccc2)oc1-c1ccccc1,0.936,-1.07
COc1cc2c(cc1OC)C(c1ccc3ccccc3c1)CC(=O)N2 (stereo not given),0.928,-2.86
CCOC(=O)Cc1csc(NC(=O)COc2cccc(Oc3ccccc3)c2)n1,1.35,2.66
CCOc1ccc2nc(N3CCCC(C(=O)Nc4ccc(NC(C)=O)cc4)C3)sc2c1 (stereo not given),1.01,0.154
CC1CCN(CCCNC(=O)CN2C(=O)COc3ccccc32)CC1,1.05,1.55
Cc1ccc(Nc2cc(C(=O)NCCCN3CCOCC3)c3ccccc3n2)c(C)c1,1.01,0.349
COc1ccc(OC)c(-c2cc(C(=O)N3CCc4ccccc4C3)no2)c1,1.12,0.868
O=C1CC(c2cccc(Br)c2)C2=C(CCCC2=O)N1 (stereo not given),1.11,1.44
O=C(Nc1ccccc1C(=O)O)c1cccc(S(=O)(=O)N2CCCCC2)c1,1.06,0.0553
CN(C)CCNc1oc(COc2ccc(Cl)cc2)nc1C#N,0.996,-0.0252
COc1ccc(CNC(=O)C2CCN(S(=O)(=O)c3cccc4nonc34)CC2)cc1,1,0.00216
COc1ccccc1N1CCN(C2CC(=O)N(CCc3ccccc3)C2=O)CC1 (stereo not given),0.862,-2.18
CC(C)CC(C(=O)Nc1ccccc1F)N1C(=O)c2ccccc2C1=O (stereo not given),0.89,-0.482
CC(C)CCN1CC(C)C(O)(c2ccccc2)CC1C (stereo not given),1.09&0.892,0.65&-1.66
CCN(CC)CCCNC(=O)c1cc(-c2ccc(OC)cc2)on1,1.44,2.59
CCN(CC)c1cc(C)c2cc(NC(=O)c3ccccc3F)ccc2n1,1.1,4.74
Cc1ccc(-n2c3c(cc(C(=O)Nc4ccc(S(N)(=O)=O)cc4)c2=O)C(=O)CC(C)(C)C3)cc1,0.929,-0.46
COc1cccc(-n2ccnc2SCC(=O)Nc2cccc(C)c2)c1,0.618,-0.507
COc1cccc(-c2nc(CSCC(=O)NCCc3ccc(C)cc3)c(C)o2)c1,1.04,0.418
COc1cccc(C2=NOC(C(=O)N3CCN(C(c4ccccc4)c4ccccc4)CC3)C2)c1 (stereo not given),0.897,-0.968
O=C(C1CCC1)N1CCc2cc(S(=O)(=O)N3CCN(Cc4ccc5c(c4)OCO5)CC3)ccc21,0.95,-1.4
Cc1onc(-c2ccccc2Cl)c1C(=O)N(Cc1ccccc1)C(C)C,0.995,-0.164
Cc1ccc2cc(CCNC(=O)c3ccc(S(=O)(=O)N(C)C)cc3)c(=O)[nH]c2c1C,1.06,1.15
Cc1cccc2c1-c1sc(C(=O)NCCC3=CCCCC3)cc1CO2,1.08,2.86
COc1ccc(Br)cc1CN1C(=O)c2ccccc2C1C(=O)NCc1cccnc1 (stereo not given),0.972,-1.07
CCOc1ccc(C2C(=O)N(C3CCCCC3)CC(=O)N2Cc2ccc(C)cc2)cc1OC (stereo not given),0.955,-1.01
O=C(CN1C(=O)c2ccccc2S1(=O)=O)Nc1ccc(F)cc1F,1.23,2.3
NC(=O)c1cn(-c2ccccc2)nc1-c1ccc(Cl)cc1,1.12,1.33
CCOc1ccc(CNC(=O)c2cc3c(-c4cccc(OC)c4)nn(C)c3s2)cc1,0.976,-0.672
COc1ccc2nc(N3CCC(C(=O)NC4CC4)CC3)sc2c1,1.01,0.13
Cc1ccc(Nc2nc3cc(C)ccc3nc2NS(=O)(=O)c2ccc(C)cc2)cc1,1.15,2.55
Cc1ccccc1C(=O)NCCc1cc2ccc(C)c(C)c2[nH]c1=O,1.07,1.44
CC1CCN(S(=O)(=O)c2cccc(C(=O)Nc3ccccc3C(=O)N3CCCC3)c2)CC1,1.02,0.316
CCn1c2ccccc2c2cc(NC(=O)Cn3ncc4c3-c3cc(C)ccc3OC4)ccc21,1.03,0.713
CCOC(=O)c1cnc2cc(-c3ccc(C)cc3)nn2c1C,1.25,2.24
COc1cccc(C2=NOC(C(=O)Nc3cc(C)on3)C2)c1 (stereo not given),0.942,-0.773
CN1CCN(CCCNC(=O)C2CC(=O)N(C3CCCC3)C2)CC1 (stereo not given),0.996,-0.143
COc1ccc(CCNC(=O)C2CC(c3ccc(OC)c(OC)c3)=NO2)cc1OC (stereo not given),0.968,-1.17
COc1cccc(Nc2nc(Cc3ccccc3)nc3sc4c(c23)CCCC4)c1,1.11,3.85
CCOc1ccccc1N(C)C(=O)Cc1c(C(=O)O)[nH]c2ccc(Cl)cc12,1.18,1.76
CCCCNC(=O)c1cc2nc3c(c(C(F)(F)F)n2n1)CCc1ccccc1-3,1.03,0.342

# As a working copy, 4 of the compounds above:
SMILES,CBX7 inh,CBX7 inh z-score
COc1ccc(CCNC(=O)C2CC(c3ccc(OC)c(OC)c3)=NO2)cc1OC (stereo not given),0.968,-1.17
COc1cccc(Nc2nc(Cc3ccccc3)nc3sc4c(c23)CCCC4)c1,1.11,3.85
CCOc1ccccc1N(C)C(=O)Cc1c(C(=O)O)[nH]c2ccc(Cl)cc12,1.18,1.76
CCCCNC(=O)c1cc2nc3c(c(C(F)(F)F)n2n1)CCc1ccccc1-3,1.03,0.342

# (next part)
SMILES,CBX7 inh,CBX7 inh z-score
COc1ccc(C(=O)Nc2ccc(-c3nc4ccccc4s3)cc2)cc1Cl,1.13,2.53
Fc1cccc(Cl)c1-c1nnc2ccc(N3CCCCC3)nn12,1.04,0.798
Cc1ccc(S(=O)(=O)NCCc2cc3c(C)ccc(C)c3[nH]c2=O)cc1,0.96,-0.773
CN(CCO)CC(O)Cn1c2ccc(Cl)cc2c2cc(Cl)ccc21 (stereo not given),1.15,4.09
CC(=O)N1c2ccc(S(=O)(=O)NCC3COc4ccccc4O3)cc2CC1C (stereo not given),1.04,1.1
Cc1ccc(CCNC(=O)CN2C(=O)COc3ccc(S(=O)(=O)N4CCCCCC4)cc32)cc1,1.2,6.55
COc1ccc(Nc2cc(C(=O)NCc3cccnc3)c3ccccc3n2)c(OC)c1,0.947,-0.814
COc1ccc(C(=O)Nc2nnc(C3CCCCC3)s2)c(OC)c1,1.02,0.305
CCc1ccc(-n2cnc3cc(C(=O)NC4CCCC(C)C4C)ccc32)cc1 (stereo not given),0.832,-2.92
Cc1ccc(-c2nc3ccccc3o2)cc1NC(=O)Cc1ccc(Cl)cc1,1.01,0.0129
CCCCCCNC(=O)c1c[nH]c2ccc(S(=O)(=O)N3CCc4ccccc4C3)cc2c1=O,1.11,1.18
CCCCNS(=O)(=O)c1ccc2nc(-c3cccs3)cc(C(=O)NCCCOC)c2c1,0.97,-0.703
Cc1ccc(C)c(NC(=O)COc2ccc3oc4c(c3c2)CCCC4)c1,1.02,0.18
COc1cccc(CNC(=O)C2CCCN(S(=O)(=O)c3c(C)n[nH]c3C)C2)c1 (stereo not given),1.04,0.311
CCn1cc(C(=O)N(C)c2ccccc2F)c2cc(OC)c(OC)cc2c1=O,1.07,0.645

# Four of these compounds, reformatted.
mol | CBX7 inh | CBX7 inh z-score
CC(CC(=O)NC(C)CCc1ccccc1)CC1=NS(=O)(=O)c2ccccc2N1 (stereo not given) | 0.946 | -0.573
O=C(Nc1ccc(O)c(-c2nc3ccccc3[nH]2)c1)C12CC3CC(CC(C3)C1)C2 | 0.987 | -0.155
Cc1onc(-c2ccccc2Cl)c1C(=O)N(Cc1ccccc1)C(C)C | 0.995 | -0.164
CCOc1ccc(CNC(=O)c2cc3c(-c4cccc(OC)c4)nn(C)c3s2)cc1 | 0.976 | -0.672

# Additional structures follow.
SMILES,CBX7 inh,CBX7 inh z-score
Cc1ccc(NC(=O)CCc2nnc3ccc(NCc4ccc(Cl)cc4)nn23)cc1,0.986,-0.396
COc1ccc(-c2nc3ccc(Cl)cc3nc2-c2ccc(OC)cc2)cc1,2.2,7.91
O=C1CN(C(=O)c2ccccc2Cl)C(c2ccc(F)cc2)c2cc(F)ccc2N1 (stereo not given),0.942,-0.244
COc1ccc2oc(=O)c(-c3csc(Nc4ccc(Cl)cc4Cl)n3)cc2c1,1.03,0.575
Cc1ccc(NC(=O)COc2ccc3oc4c(c3c2)CCCC4)cc1C,0.941,-0.587
CCOC(=O)N1CCc2c(sc(NCc3ccc(N(C)C)cc3)c2C(=O)Nc2cc(OC)ccc2OC)C1,0.513,-25.2
O=C(CSc1nnc(Cc2cc(=O)[nH]c(=O)[nH]2)n1-c1ccc(F)cc1)N1CCCC1,0.947,-1.4
CC(C(=O)NCc1cccnc1)n1ncc2ccccc21 (stereo not given),0.944,-1.06
CCOC(=O)C1CCN(c2c(N3CCN(Cc4ccc5c(c4)OCO5)CC3)c(=O)c2=O)CC1,1.07,1.87
CC1CC(C)CN(C(=O)C2CCN(C(=O)c3cnn(-c4ccccc4)c3-n3cccc3)CC2)C1 (stereo not given),1.03,1.16
CCOC(=O)c1sc2nc(Cc3ccccc3)nc(NCc3ccc(Cl)cc3)c2c1C,1.01,0.0111
COc1ccc(Nc2nc(-c3c(C)nc4cc(C)ccn34)cs2)cc1,0.855,-5.03
Cc1cc(C)cc(NC(=O)c2cnn(-c3ccccc3)c2C2CCN(C(=O)OC(C)(C)C)CC2)c1,0.899,-3.32
CCOc1ccc(C(=O)Nc2c(C(=O)c3ccc(C)cc3)oc3ccccc23)cc1,1.18,0.809
CCN(CC)CCNC(=O)c1nc(-c2ccc(C)cc2)oc1C,1.04,0.703
Cc1ccc(NC(=O)CCc2nc3ccccc3[nH]2)cc1C,1.06,2.23
Cc1ccc(Nc2nc(-c3ccccc3Cl)nc3ccccc23)c(C)c1,0.901,-1.43
COc1ccc(Cn2c(CCC(=O)NCc3cccnc3)nc3cccnc32)cc1,0.955,-0.871
CCCCn1c(=N)n(CCOc2ccccc2Cl)c2ccccc21,0.909,-1.71
CCCOc1c(-c2ccc3ccccc3n2)cnc2ccccc12,1.02,0.0848
CCCCCn1c(=O)[nH]c2cc(C(=O)NCCNC(C)=O)ccc2c1=O,1.04,0.705
